# Mtb hypoxia inh: PubChem AID 1159583; M. tuberculosis hypoxia-regulated fluorescent reporter, fluorescence; fluorescence inhibition, % (concentration not given with the values); 300,000 tested, 0.1% active;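 active means 35 to 45% if threefold the growth effect, above 45% if 1.5-fold the growth effect; inactive means the rest, general growth blockers included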;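 further: wells of about 50 µL received 100 nL stock; 0% = vehicle wells and 100% = reference inhibitor wells; whole bacteria with a GFP reporter of the hypoxia response; strong numbers were not always called active; many hits fall short of the cut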
# Bead autofluor: compound fluorescence in toxin protease inhibitor counterscreen. compound autofluorescence counterscreen, microsphere flow cytometry; stronger effect = higher value. 360,000 tested, 3.1% active. fluorescence intensity (test concentration not listed);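 active means at least 3 SD above the mean of all compounds, about 16000 in these data; inconclusive means too few beads counted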;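 further: 100 nL of 1 mM stock went into each well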
# PrP UTR inh: inhibition of PrP 5' UTR reporter expression; inhibition, % (no concentration beside the values); AID 488862, 2010; 340,000 tested, 0.35% active; cell-based PrP 5' UTR mRNA reporter, plate reader;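 active means every replicate at 50% or more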;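 further: 0 = median of the neutral control wells; tested in H4 reporter cells; numbers are from one replicate; inactives centre near -14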
# Sa RN4220 lethal: growth inhibition of S. aureus RN4220, primary screen, OD600. 16 h. 330,000 tested, 0.33% active. inhibition, % (test concentration not listed). AID 1259311, 2017;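 active means z-score of -3 or lower and OD600 up to 0.18 on both plates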;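 further: plate controls were untreated cells for no effect and reference antibiotic for full effect; stock transfer was 100 nL into about 80 µL; one replicate is shown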
# BJeLR lethal: MLPCN primary cell-based screen for lethality selective to Ras in HRASV12 cells; BJeLR (HRASV12) viability, CellTiter-Glo ATP luminescence, 48 h; reference of the scale not given here; AID 1554, 2009; 300,000 tested, 0.17% active; inhibition, % (no concentration beside the values);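 active means replicate mean above 50%; inconclusive means above 50% but judged a plate artefact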;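 further: 50 nL library stock added to about 25 µL; numbers are from one replicate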
# Sa ugtP lethal: growth inhibition of ugtP-null S. aureus, primary screen, RN4220 ugtP deletion, OD600 | 16 h; some inactives read as strong as hits | growth inhibition, % (no concentration beside the values) | 330,000 tested, 0.54% active | AID 1259309, 2017;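 active means z-score under -3 and OD600 up to 0.15 on both plates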;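 further: plate controls were untreated wells for no effect and antibiotic for full effect; wells of about 80 µL received 100 nL stock; the first replicate is given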
# Mtb hypoxia inh growth: second read-out of Mtb hypoxia inh, no call of its own (marks repeat the call); growth inhibition, %; measured here: M. tuberculosis growth (absorbance);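 0% = vehicle and 100% = reference antibiotic; read after six days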
# The depositor's hits bear a star; ? = inconclusive; nt = no result given.
SMILES,Mtb hypoxia inh,Mtb hypoxia inh growth,Bead autofluor,PrP UTR inh,Sa RN4220 lethal,BJeLR lethal,Sa ugtP lethal
CC(C)c1ccc(N(C(=O)c2snc(C(N)=O)c2N)C(C(=O)NCC2CCCO2)c2ccc(N(C)C)cc2)cc1 (stereo unspecified),4,8,5722,-9,-3.4,3,-10
O=c1c2c(nc3n1CCCCC3)sc1c(O)cccc12,nt,nt,4561,-42,-0.9,nt,12
CCCCCSc1nnc(-c2ccccc2N)c(=O)[nH]1,1,8,2200,-6,5.5,1,-2
CCOc1ccc(NC(=O)CCN2CCN(c3ccccc3OC)CC2)cc1,nt,nt,2759,-76,-3.9,12,-2
N#Cc1cc(Oc2ccc3ccccc3c2)c(-n2nnc3ccccc32)cc1C#N,6,4,20725*,-13,8.0,1,1
NC(Cn1nnc(-c2ccccc2)n1)=NO,10,5,nt,nt,-0.9,nt,-2
C=CCn1cccc(C(=O)Nc2ccc(SC)cc2)c1=O,11,2,3938,-67,0.6,1,-1
O=[N+]([O-])c1ccc(N/N=C/c2cccc(O)c2O)c(S(=O)(=O)N2CCOCC2)c1,nt,nt,3278,-13,nt,8,nt
O=c1c(-c2ccc(Br)cc2)[n+]([O-])c2ccccc2n1OCc1ccccn1,-11,-8,4625,-26,2.4,-8,-5
CCN(CC)CCCN1C=C2C(=O)C(C)(OC(=O)CCC(=O)OC)C(=O)C(Br)=C2C=C1c1ccc(OC)cc1 (stereo unspecified),nt,nt,2169,-20,nt,-5,nt
CNc1nc(N(C)C)nc(N(C)C)n1,9,0,7544,-22,6.4,4,0
C=C(C)[C@H]1CC=C(C)C(=O)C1,9,6,6151,-8,4.1,nt,6
COc1cc(NC(=S)NCCc2ccccc2)c(OC)cc1NC(=O)CC(C)C,-3,5,4525,10,-1.1,12,-1
O=C(c1cc(-c2ccco2)on1)N1CCc2ccccc2C1,7,9,8493,-22,4.8,-3,1
Cc1nnc(SCC(=O)N2CCCC2)n(N)c1=O,10,7,3443,-8,9.1,5,4
NC(=O)c1cc2cc(Cl)ccc2oc1=O,4,10,4642,-3,6.3,-3,3
CCOC(=O)c1sc(-c2cccs2)nc1C,13,13,4641,-33,4.7,0,8
CCc1ccc(CN2CCN(S(=O)(=O)Cc3ccccc3)CC2)cc1,4,-1,4264,-21,2.3,5,16
Cc1ccc2cccnc2c1N,15,6,4818,-10,17,-3,6
N#Cc1ccc(NC2c3ccccc3CC2O)cc1 (stereo unspecified),2,4,2824,-11,1.8,nt,-2
O=S(=O)(NCCOc1ccccc1F)c1cccc(Br)c1,6,3,6841,-9,10,nt,15
O=C(O)c1ncn(Cc2ccccc2)c1C(=O)O,-1,9,10541,-32,2.9,4,1
O=C(N/C(=C/c1cn(-c2ccccc2)nc1-c1ccccc1)C(=O)N1CCOCC1)c1ccccc1,2,-4,nt,nt,4.5,9,6
CCOc1ccc(C=NNC(=O)c2nnn(-c3nonc3N)c2-c2cccs2)cc1,6,4,nt,nt,1.1,nt,2
COc1cc(/C=C/C(=O)OC(C)C(=O)c2ccccc2)cc(OC)c1OC (stereo unspecified),-1,11,?,1,0.8,4,3

# Reprinted at random: six records from the list, in no set order.
SMILES,Mtb hypoxia inh,Mtb hypoxia inh growth,Bead autofluor,PrP UTR inh,Sa RN4220 lethal,BJeLR lethal,Sa ugtP lethal
CCN(CC)CCCN1C=C2C(=O)C(C)(OC(=O)CCC(=O)OC)C(=O)C(Br)=C2C=C1c1ccc(OC)cc1 (stereo unspecified),nt,nt,2169,-20,nt,-5,nt
O=C(c1cc(-c2ccco2)on1)N1CCc2ccccc2C1,7,9,8493,-22,4.8,-3,1
C=C(C)[C@H]1CC=C(C)C(=O)C1,9,6,6151,-8,4.1,nt,6
CCOc1ccc(NC(=O)CCN2CCN(c3ccccc3OC)CC2)cc1,nt,nt,2759,-76,-3.9,12,-2
NC(=O)c1cc2cc(Cl)ccc2oc1=O,4,10,4642,-3,6.3,-3,3
O=S(=O)(NCCOc1ccccc1F)c1cccc(Br)c1,6,3,6841,-9,10,nt,15

# Other records
SMILES,Mtb hypoxia inh,Mtb hypoxia inh growth,Bead autofluor,PrP UTR inh,Sa RN4220 lethal,BJeLR lethal,Sa ugtP lethal
CCOC(=O)Cn1nc(C)c(NC(=O)COc2ccc(F)cc2F)c1C,5,9,4350,1,10,-2,3
O=C(CNC(=O)c1ccco1)OCc1ccc(Cl)cc1,7,0,?,6,5.6,8,-1
CCC(C)(C)C(=O)Nc1cccc(Cl)c1C,nt,nt,4104,-26,nt,5,nt
O=c1[nH]c(=O)n(Cc2ccco2)c2c1C(C(F)(F)F)(C(F)(F)F)N=C(CCC1CCCCC1)N2,1,10,?,-10,-2.1,0,-8
Cc1ccccc1Nc1nc(N)nc(COC(=O)CCNS(=O)(=O)c2ccccc2)n1,-10,-1,?,-17,0.6,2,-6
Cc1nc2sc(C(c3cccs3)N3CCC(C(N)=O)CC3)c(O)n2n1 (stereo unspecified),2,11,6821,-13,-12,0,-10
CCN(c1ccc(NC(=O)CCNC(=O)c2ccco2)cc1)C(C)C,-1,-1,2457,-40,5.1,-10,12
CCn1c2ccccc2c2nc3cc(C(=O)O)ccc3nc21,4,14,1989,-9,16,nt,-2
Cc1cc(C(=O)COC(=O)c2ccccc2NCCO)c(C)n1CC1CCCO1 (stereo unspecified),3,3,5322,19,0.7,-5,-5
CC(=O)c1ccc(C2C[C@@]34CN(C(=O)OC(C)(C)C)S(=O)(=O)C3CC2O4)cc1 (stereo partly specified),6,4,nt,nt,3.0,nt,-1
COc1ccccc1CNS(=O)(=O)c1ccc(C)cc1,1,-1,3198,-15,3.8,-5,1
CCN(C(=O)CSc1nc2n[nH]c(C)c2c(=N)n1-c1ccc(Cl)c(C)c1)c1cccc(C)c1,-4,-2,6285,-15,6.7,-1,6
COc1ccc(-n2c(SCC(=O)N3CCCC3)nc3ccccc3c2=O)cc1,-4,9,nt,nt,0.0,3,-4
CCc1cc2c(=O)c(-c3nc4ccccc4[nH]3)coc2c(CN2CCCCC2C)c1O (stereo unspecified),9,-3,4181,-7,3.2,5,1
Cc1ccc(Cn2c(=N)c(S(=O)(=O)c3ccc(C)cc3)cc3c(=O)n4ccccc4nc32)cc1,-9,-10,4388,-7,-5.8,-3,-9
CCN1C(=O)CC(Sc2ccccc2N)C1=O (stereo unspecified),nt,nt,3603,-15,5.1,-2,0
CC(C)(C)Cc1nnc(NS(C)(=O)=O)s1,4,8,13397,-3,6.0,12,0
COc1ccc2c(c1)C(=O)CC(c1ccc(OC)c(OC)c1)O2 (stereo unspecified),-4,6,3415,-2,2.6,-4,2
CCc1c(C)sc(NC(=O)OC)c1C(N)=O,-1,-8,17066*,-6,2.5,-5,3
O=C(CC1C(=O)NCCN1CCCc1ccccc1)NCCc1ccccc1F (stereo unspecified),6,0,6895,-19,0.4,0,9
CN1CCN(c2ccc(S(=O)(=O)N3CCCCC3)cc2NC(=O)c2ccc(C#N)cc2)CC1,19,11,2143,-65,5.3,14,2
OC(COc1cccc2ccccc12)CN1CCN(c2ccccc2Cl)CC1 (stereo unspecified),nt,nt,4529,-18,nt,-4,nt
CC(CN1CCCC1)OC(=O)c1ccccc1Cl (stereo unspecified),6,-5,4121,-14,4.0,3,15
CC(C)CC(=O)Nc1c2c(nn1-c1ccc([N+](=O)[O-])cc1)CS(=O)(=O)C2,6,1,3625,-12,0.7,-3,5
COc1ccc(C(=O)NC(=S)NCc2ccc(-c3nc4ccccc4o3)cc2)cc1OC,-6,4,21219*,2,6.7,-6,-14

# Other compounds follow.
SMILES,Mtb hypoxia inh,Mtb hypoxia inh growth,Bead autofluor,PrP UTR inh,Sa RN4220 lethal,BJeLR lethal,Sa ugtP lethal
Cc1cc(CNC(=O)C(C)n2cc([N+](=O)[O-])cn2)c2ccccc2n1 (stereo unspecified),-8,-10,3976,-4,-1.6,5,1
NC1=NC(=O)/C(=C/c2ccccc2OCC(=O)Nc2ccc(F)cc2)S1,-9,7,3938,-14,1.0,nt,-6
CCOc1ccccc1NC(=O)COC(=O)CNS(=O)(=O)c1ccc(C)cc1,7,0,9705,-8,2.6,-8,4
CCc1ccccc1NC(=O)C1CCCN1S(=O)(=O)c1ccc(-c2ccc(=O)[nH]n2)s1 (stereo unspecified),0,0,4183,-13,96*,2,88*
COc1ccc2c(c1OC)C(=O)N(c1ccc(O)cc1)C2=O,-12,-12,4213,-27,4.1,0,3
COc1ccccc1NC(=O)c1ccc(NC(=O)CSc2ncccn2)cc1,-1,4,4600,-14,-0.4,-20,1
O=C(N/N=C/c1c(O)n(CCc2ccccc2)c(=O)[nH]c1=O)c1ccccc1,4,12,nt,nt,6.2,-3,-5
Cc1ccc(SCCNC(=O)c2ccc(CN3CCOCC3)cc2)cc1,3,1,2390,-20,7.6,1,0
CN1CCN(CC(=O)N2c3ccccc3C(C)(c3ccc(Cl)cc3)CC2(C)C)CC1 (stereo unspecified),nt,nt,2567,-14,-0.3,-2,53
Cc1ccc(NN=C(C#N)C(=N)N2CCOCC2)cc1,4,8,nt,nt,2.8,nt,4
COc1ccc(CN2CCN(C(=O)c3ccco3)CC2)c(OC)c1OC,2,0,nt,nt,3.2,-8,4
O=Cc1ccc(OCc2cccc(C(F)(F)F)c2)cc1O,9,5,3992,-11,-15,nt,14
COc1ccc(/C=C(\C#N)C(=O)NCC(c2ccc(F)cc2)N2CCOCC2)cc1 (stereo unspecified),6,11,4725,-5,3.5,2,5
CN(C)CC(C)(C)CNC(=S)Nc1cc(S(=O)(=O)N2CCOCC2)ccc1Cl,8,-1,3525,4,-1.1,1,1
CC(=O)n1c(=O)c2ccccc2c(=O)n1-c1ccccc1,10,7,3771,-25,0.9,-2,6
CCOc1ccc(C(=O)NC(=S)NCc2cccnc2)cc1[N+](=O)[O-],nt,nt,2366,-10,5.0,-10,11
CCOC(=O)c1c(S(=O)(=O)N2CCCC(C)C2)c(C)n(C)c1C (stereo unspecified),-1,5,5819,-14,4.4,-1,7
CC(NC(=O)CC1Nc2ccccc2NC1=O)c1ccccc1 (stereo unspecified),-6,0,3165,-12,11,2,8
Cn1cc(/C=N\O)nc2c(=O)n(-c3ccccc3)c(=O)nc1-2,nt,nt,4254,-28,nt,-8,nt
Cc1ccnc(NC(=O)c2ccc3c(c2)S(=O)(=O)c2ccccc2C3=O)c1,-2,6,5199,-42,6.3,0,8
COCCOc1cc(-n2ccnc2SC)c(Cl)cc1Cl,nt,nt,2880,-13,5.5,7,2
Cc1ccc(-c2cc(C(=O)N3CCCc4ccccc43)c3ccccc3n2)cc1,7,9,8124,-13,-4.1,-22,26
CC(C)OC(=O)CSc1nnnn1-c1ccc2c(c1)OCCO2,11,7,6056,-56,5.0,-6,14
S=C(NCCCN1CCOCC1)N1CCN(c2nc(-c3ccccc3)cs2)CC1,6,-2,3241,-17,13,20,-7
CCC(=O)Nc1nonc1-c1nc2ccccc2n1Cc1cccc2ccccc12,-6,8,5110,-8,-3.2,29,-4
Cc1cc(C)n(-c2nc3ccccc3nc2Nc2ccc3c(c2)OCO3)n1,0,16,5720,-20,-12,-2,9

# Compound profiles, from the list above. Values in the order: Mtb hypoxia inh	Mtb hypoxia inh growth	Bead autofluor	PrP UTR inh	Sa RN4220 lethal	BJeLR lethal	Sa ugtP lethal
# Entry for CCOc1ccc(C(=O)NC(=S)NCc2cccnc2)cc1[N+](=O)[O-] = nt	nt	2366	-10	5.0	-10	11
# Entry for S=C(NCCCN1CCOCC1)N1CCN(c2nc(-c3ccccc3)cs2)CC1 = 6	-2	3241	-17	13	20	-7

# 5 of the compounds above, bar-delimited:
smiles | Mtb hypoxia inh | Mtb hypoxia inh growth | Bead autofluor | PrP UTR inh | Sa RN4220 lethal | BJeLR lethal | Sa ugtP lethal
CC(=O)n1c(=O)c2ccccc2c(=O)n1-c1ccccc1 | 10 | 7 | 3771 | -25 | 0.9 | -2 | 6
CCOc1ccc(C(=O)NC(=S)NCc2cccnc2)cc1[N+](=O)[O-] | nt | nt | 2366 | -10 | 5.0 | -10 | 11
CCOC(=O)c1c(S(=O)(=O)N2CCCC(C)C2)c(C)n(C)c1C (stereo unspecified) | -1 | 5 | 5819 | -14 | 4.4 | -1 | 7
CC(NC(=O)CC1Nc2ccccc2NC1=O)c1ccccc1 (stereo unspecified) | -6 | 0 | 3165 | -12 | 11 | 2 | 8
Cn1cc(/C=N\O)nc2c(=O)n(-c3ccccc3)c(=O)nc1-2 | nt | nt | 4254 | -28 | nt | -8 | nt
